rRNA inh HTS = selective bacterial rRNA inhibition in E. coli | E. coli WT GFP vs humanized-ribosome RFP mutants, fluorescence, 24 h; active compounds read low; DMSO median 0, no signal -100 | GFP signal change (wild-type ribosome), % (test concentration not listed) | 350,000 tested, 1.6% active;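 active = significant combined selectivity score with lowered wild-type GFP, culture density cut under 30%, mutant RFP and density less affected; inactive = any of these conditions unmet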; also: one replicate is shown; some compounds called inactive have numbers as strong as hits
FGF22 binding = FGF22 (human) thermal shift binding; 340,000 tested, 1.5% active; recombinant FGF22 thermal shift, SYPRO orange fluorescence; percent of sucrose octasulfate shift, DMSO zero; Q9HCT0; calls only at 9.99 µM;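 active = melting point raised past a set limit in the mean and every replicate; three in four hits are not shown here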
Target sequence (Q9HCT0 whole entry, looked up): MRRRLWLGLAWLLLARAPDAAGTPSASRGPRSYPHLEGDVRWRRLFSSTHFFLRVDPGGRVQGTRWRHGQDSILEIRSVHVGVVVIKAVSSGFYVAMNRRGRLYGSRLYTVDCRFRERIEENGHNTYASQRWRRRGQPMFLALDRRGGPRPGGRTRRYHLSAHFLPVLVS
rRNA inh HTS OD600 = also measured in rRNA inh HTS; calls as there; OD600 change, %; measured here: OD600 growth;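 optical density of the mix in the first replicate; 0 = DMSO median and -100 = no signal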
rRNA inh HTS RFP = further read-out of rRNA inh HTS, marked with its call; RFP signal change, %; measured here: RFP humanized mutant strains;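 first replicate; 0 = DMSO median and -100 = no signal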
* = called active by the depositor; i = inactive; + = active, no number; & = joins results of further samples.

compound | rRNA inh HTS | rRNA inh HTS OD600 | rRNA inh HTS RFP | FGF22 binding
C[C@@H]1CN([C@H](C)CO)C(=O)c2cc(NS(=O)(=O)c3ccc(Cl)cc3)ccc2O[C@H]1CN(C)Cc1ccc2c(c1)OCO2 | -5.2 | -10.2 | 1.9 | i
C[C@H](CO)N1C[C@H](C)[C@@H](CN(C)C(=O)Cc2ccncc2)Oc2cc(C3=CCCCC3)ccc2S1(=O)=O | 0.1 | 0.3 | 1.6 | i
CNC[C@@H]1Oc2ccc(NS(=O)(=O)c3ccc(F)cc3)cc2CC(=O)N([C@@H](C)CO)C[C@H]1C | 4.1 | 12.2 | -0.9 | i
C[C@H](CO)N1C[C@H](C)[C@H](CN(C)C(=O)Cc2cccnc2)Oc2ncc(-c3cncnc3)cc2C1=O | 1.6 | 7.8 | -4.0 | i
C[C@H](CO)N1C[C@H](C)[C@@H](CN(C)C(=O)Nc2cccc3ccccc23)Oc2c(NC(=O)c3cnccn3)cccc2C1=O | 4.2 | 4.0 | 1.8 | i
CNC[C@@H]1Oc2ccc(NC(=O)NC3CCCCC3)cc2C(=O)N([C@H](C)CO)C[C@H]1C | 4.6 | -1.7 | -3.0 | i
COc1ccc(NC(=O)Nc2ccc3c(c2)CC(=O)N([C@H](C)CO)C[C@@H](C)[C@@H](CN(C)C(=O)Nc2ccc(F)cc2)O3)cc1 | 3.6 | 3.9 | 0.6 | i
Cc1ccc(-c2ccc([C@@H]3[C@@H](CO)N4C(=O)CN(C(=O)c5ccc(F)cc5)C[C@H]34)cc2)cc1 | 2.4 | -39.7 | 17.6 | +
CC(=O)Nc1ccc2c(c1)C(=O)N(C)[C@@H]1CC[C@H](CC(=O)N3CCc4ccccc4C3)O[C@H]1CO2 | -1.5 | 0.7 | -0.1 | i
C[C@@H]1CN([C@@H](C)CO)C(=O)c2cc(NS(=O)(=O)c3ccccc3)ccc2O[C@@H](C)CCCCO[C@H]1CN(C)C(=O)CCC(F)(F)F | 2.5 | 6.4 | 3.6 | i
COc1cccc(CN(C)C(=O)[C@H]2O[C@@H](n3cnc4c(=O)[nH]c(N)nc43)[C@H](O)[C@@H]2O)c1 | 28.9 | 9.9 | 0.9 | i
C[C@H](CO)N1C[C@H](C)[C@H](CN(C)S(=O)(=O)c2ccccc2)Oc2ncccc2C1=O | 6.5 | 11.8 | -0.8 | i
C[C@@H]1CN([C@@H](C)CO)C(=O)c2cc(NC(=O)Nc3ccc(F)cc3)ccc2O[C@H]1CN(C)S(C)(=O)=O | 3.3 | 7.7 | -2.2 | i
C[C@@H]1CN([C@H](C)CO)S(=O)(=O)c2ccc(-c3ccc(C(=O)N(C)C)cc3)cc2O[C@@H]1CN(C)C(=O)Nc1ccccc1F | -4.4 | -8.1 | 0.5 | i
COc1ccc(NC(=O)N(C)C[C@H]2OCc3ccccc3-c3c(n(C)c4ccccc34)C(=O)N([C@H](C)CO)C[C@H]2C)cc1 | -0.5 | -2.5 | 4.0 | i
C[C@@H]1CN([C@@H](C)CO)C(=O)c2c(c3ccccc3n2C)-c2ccccc2CO[C@H]1CN(C)C(=O)Cc1ccccc1 | -6.4 | -21.4 | 3.3 | i
C[C@@H]1CN([C@H](C)CO)S(=O)(=O)c2ccc(C#CC(C)(C)O)cc2O[C@@H]1CN(C)Cc1ccc(F)cc1 | 0.6 | -6.0 | 5.2 | i
N#C[C@@H]1[C@H](c2ccccc2C2=CCCCC2)[C@H](CO)N1S(=O)(=O)c1cccc(F)c1 | -11.4 | -37.6 | -2.3 | i
O=C([C@H]1[C@H](CO)[C@H]2Cn3c(cccc3=O)[C@H]2N1C(=O)C1CCCCC1)N1CCOCC1 | 2.8 | 8.1 | 2.6 | i
Nc1ccn([C@@H]2O[C@H](C(=O)N[C@H](Cc3ccccc3)C(=O)NCc3cccc4c3OCO4)[C@@H](O)[C@H]2O)c(=O)n1 | 6.9 | 2.0 | 4.5 | i
Cc1ccc(S(=O)(=O)Nc2ccc3c(c2)C(=O)N(C)[C@@H]2CC[C@H](CC(=O)NCCc4ccncc4)O[C@H]2CO3)cc1 | -2.9 | 5.7 | -1.8 | i
Cc1noc(C)c1NC(=O)Nc1ccc2c(c1)C(=O)N([C@@H](C)CO)C[C@@H](C)[C@H](CN(C)C(=O)C1CCCCC1)OCCCC[C@H](C)O2 | 0.4 | 1.8 | -3.9 | i
C[C@H](CO)N1C[C@H](C)[C@@H](CN(C)C(=O)Nc2ccc(C(F)(F)F)cc2)OCCCC[C@H](C)Oc2ccc(NC(=O)c3ccccc3)cc2C1=O | -1.1 | 6.4 | -1.3 | i
C[C@H](CO)N1C[C@H](C)[C@@H](CN(C)C(=O)Nc2ccc(F)cc2)OCCCC[C@H](C)Oc2ccc(NC(=O)Cc3ccccc3)cc2C1=O | 2.9 | 2.6 | -0.2 | i
C[C@H](NC(=O)[C@H]1[C@H](CO)[C@H]2Cn3c(cccc3=O)[C@H]2N1Cc1cccnc1)c1ccccc1 | 2.4 | -5.7 | -3.0 | i

Structures from the list above that have an aryl methoxy group, in the order listed:
compound | rRNA inh HTS | rRNA inh HTS OD600 | rRNA inh HTS RFP | FGF22 binding
COc1ccc(NC(=O)Nc2ccc3c(c2)CC(=O)N([C@H](C)CO)C[C@@H](C)[C@@H](CN(C)C(=O)Nc2ccc(F)cc2)O3)cc1 | 3.6 | 3.9 | 0.6 | i
COc1cccc(CN(C)C(=O)[C@H]2O[C@@H](n3cnc4c(=O)[nH]c(N)nc43)[C@H](O)[C@@H]2O)c1 | 28.9 | 9.9 | 0.9 | i
COc1ccc(NC(=O)N(C)C[C@H]2OCc3ccccc3-c3c(n(C)c4ccccc34)C(=O)N([C@H](C)CO)C[C@H]2C)cc1 | -0.5 | -2.5 | 4.0 | i

Additional structures.
compound | rRNA inh HTS | rRNA inh HTS OD600 | rRNA inh HTS RFP | FGF22 binding
O=C(C[C@@H]1CC[C@@H]2[C@H](COC[C@H](O)CN2Cc2cccc(Cl)c2)O1)Nc1nccs1 | -2.7 | -5.4 | 2.5 | i
CC=Cc1ccc2n(c1=O)C[C@H]1[C@H](CO)[C@@H](C(=O)NCc3ccccc3F)N(CC)[C@@H]21 (mixture of isomers) | -2.4 | -1.2 | 1.3 | i
CC(C)C#Cc1cnc2c(c1)C(=O)N([C@@H](C)CO)C[C@@H](C)[C@@H](CN(C)C(=O)C1CCC1)O2 | 0.0 | 3.4 | -5.5 | i
Cc1noc(C)c1NC(=O)N(C)C[C@@H]1OCCCC[C@H](C)Oc2ccc(NC(=O)Cc3ccccc3)cc2C(=O)N([C@H](C)CO)C[C@H]1C | 2.9 | 6.7 | -1.2 | i
C[C@H]1CN([C@@H](C)CO)C(=O)c2cc(NS(=O)(=O)c3ccc(Cl)cc3)ccc2O[C@H]1CN(C)Cc1ccc2c(c1)OCO2 | 0.4 | -15.2 | 8.8 | i
COc1ccc2c3c(n(C)c2c1)[C@@H](CO)N(C(=O)C1CCOCC1)CC31CN(C(=O)C2CCOCC2)C1 | 4.4 | 15.2 | -3.7 | i
C[C@@H]1CN([C@H](C)CO)C(=O)c2cccc(NC(=O)C3CC3)c2O[C@H]1CN(C)Cc1ccncc1 | 1.8 | -4.4 | -2.2 | i
CCCNC(=O)C[C@H]1C[C@H]2c3cc(NC(=O)Cc4ccncc4)ccc3O[C@H]2[C@H](CO)O1 | 0.7 | 2.5 | -1.8 | i
Cc1noc(C)c1NC(=O)Nc1ccc2c(c1)CC(=O)N([C@H](C)CO)C[C@H](C)[C@H](CN(C)Cc1ccc(Cl)c(Cl)c1)O2 | -5.0 | -8.4 | 4.1 | i
CCCN1[C@@H]2c3ccc(-c4ccccc4)c(=O)n3C[C@@H]2[C@@H](CO)[C@@H]1C(=O)NCCCN1CCOCC1 | 1.4 | 10.4 | -1.4 | i
C[C@@H]1CN([C@@H](C)CO)C(=O)c2cc(NC(=O)NC3CCCCC3)ccc2O[C@H]1CN(C)Cc1ccc(C(=O)O)cc1 | 0.0 | 5.2 | -1.6 | i
COCC(=O)N(C)C[C@@H]1Oc2cc(-c3cncnc3)ccc2S(=O)(=O)N([C@H](C)CO)C[C@H]1C | 0.8 | 1.6 | -2.0 | i
O=C(Nc1ccc(F)cc1)N[C@@H]1CC[C@H](CC(=O)N2CCOCC2)O[C@@H]1CO | -1.4 | 2.3 | -0.8 | i
CO[C@@H]1CN(C)C(=O)c2cc(NS(C)(=O)=O)ccc2OC[C@H](C)N(CCC(F)(F)F)C[C@H]1C | -0.6 | -4.0 | -0.3 | i
C[C@H](CO)N1C[C@H](C)[C@H](CN(C)Cc2ccccc2)Oc2ncc(C#Cc3ccccc3)cc2C1=O | -1.3 | -17.6 | 17.6 | i
C[C@@H]1CN([C@@H](C)CO)C(=O)c2cc(NC(=O)CCCCCC(=O)Nc3ccccc3N)ccc2O[C@H]1CN(C)S(C)(=O)=O | 3.1 | 1.2 | -2.2 | i
CCC(=O)N[C@H]1CC[C@@H](CC(=O)NCc2ccccc2F)O[C@H]1CO | 1.6 | 7.3 | -0.2 | i
CNC[C@H]1Oc2cc(C#CC3(O)CCCC3)ccc2S(=O)(=O)N([C@@H](C)CO)C[C@H]1C | 7.7 | 8.1 | -3.9 | i
Cc1cccc(-c2ccc(C3[C@@H]4CN(C(=O)c5ccncc5)C[C@H]3N4)cc2)c1 (stereo partly drawn) | 0.0&-7.0 | 8.0&-14.9 | 0.7&0.9 | i
O=C(C[C@H]1CC[C@H](NC(=O)Nc2ccc(C(F)(F)F)cc2)[C@H](CO)O1)NCc1cc(F)cc(F)c1 | 0.5 | 8.3 | -2.9 | i
CCCN1[C@@H]2c3ccc(-c4cccnc4)c(=O)n3C[C@@H]2[C@@H](CO)[C@@H]1C(=O)NC1CCC1 | -0.5 | 7.3 | 3.0 | i
C[C@H](CO)N1C[C@H](C)[C@H](CN(C)S(=O)(=O)c2ccccc2F)OCc2ccccc2-c2ccccc2C1=O | -4.9 | -22.2 | 3.9 | i
C[C@H]1CN([C@@H](C)CO)S(=O)(=O)c2ccc(C#Cc3ccccc3)cc2O[C@H]1CN(C)CC1CC1 | -4.2 | -39.9 | 26.9 | i
CC(C)NC(=O)Nc1ccc2c(c1)C(=O)N([C@@H](C)CO)C[C@H](C)[C@@H](CN(C)C(=O)c1ccncc1)OCCCC[C@H](C)O2 | 0.5 | 5.0 | 0.3 | i
OC[C@H]1[C@H](c2ccc(C#Cc3cccnc3)cc2)[C@H]2CN(Cc3ccccc3F)CCCCN21 | -8.2 | -42.5 | 20.1 | i

Continued.
compound | rRNA inh HTS | rRNA inh HTS OD600 | rRNA inh HTS RFP | FGF22 binding
CCCC(=O)Nc1ccc2c(c1)C(=O)N(C)C[C@@H](OC)[C@@H](C)CN(Cc1ccccc1)[C@H](C)CO2 | -2.7 | -5.3 | 2.7 | i
CN(C)CCCNC(=O)C[C@@H]1C=C[C@H](NC(=O)c2ccccc2F)[C@@H](CO)O1 | 1.5 | 1.7 | -0.5 | i
COc1ccccc1-c1ccc([C@H]2[C@H](C#N)N(C(=O)C3CC3)[C@H]2CO)cc1 | -0.5 | -2.0 | 1.2 | i
CC(C)NC(=O)N1[C@H](CO)[C@@H](c2ccc(-c3ccc(F)cc3)cc2)[C@@H]1C#N | -4.1 | -54.8 | 4.0 | i
C[C@@H]1CN([C@@H](C)CO)C(=O)c2cc(NC(=O)Nc3ccc(C(F)(F)F)cc3)ccc2O[C@H]1CN(C)Cc1ccc(-c2ccccc2)cc1 | 1.5 | 9.7 | -5.4 | i
Cc1ccc(S(=O)(=O)N[C@H]2C=C[C@H](CC(=O)NCc3ccncn3)O[C@@H]2CO)cc1 | 3.3 | 0.2 | 0.7 | i
COc1ccccc1-c1ccc([C@H]2[C@H]3CN(C(=O)CN4CCOCC4)CCCCN3[C@H]2CO)cc1 | 2.1 | 10.5 | -1.9 | i
O=C(C[C@@H]1C[C@@H]2c3cc(NC(=O)c4ccc5c(c4)OCO5)ccc3O[C@@H]2[C@@H](CO)O1)NCc1cccnc1 | 4.1 | 17.1 | -0.7 | i
Cc1noc(C)c1S(=O)(=O)Nc1cccc2c1O[C@H](CN(C)Cc1ccc(C(=O)O)cc1)[C@H](C)CN([C@@H](C)CO)C2=O | 4.1 | 6.3 | -2.0 | i
O=C(C[C@@H]1C[C@@H]2c3cc(NC(=O)NC4CCCCC4)ccc3O[C@@H]2[C@H](CO)O1)NCc1ccccc1 | -1.4 | 9.4 | -1.1 | i
COc1ccc(CN(C)C[C@H]2Oc3c(NC(=O)Nc4c(C)noc4C)cccc3C(=O)N([C@H](C)CO)C[C@H]2C)cc1 | 4.3 | 6.5 | -0.2 | i
C[C@@H]1CN([C@@H](C)CO)C(=O)c2cc(NC(=O)Nc3ccc(F)cc3)ccc2O[C@@H](C)CCCCO[C@@H]1CN(C)S(=O)(=O)c1ccc(Cl)cc1 | -3.9 | -3.3 | -4.4 | i
C[C@@H]1CCCCO[C@H](CN(C)C(=O)Nc2cccc3ccccc23)[C@@H](C)CN([C@H](C)CO)C(=O)c2cc(NC(=O)Nc3ccc(C(F)(F)F)cc3)ccc2O1 | 1.8 | 1.4 | -0.8 | i
C[C@H](CO)N1C[C@H](C)[C@@H](CN(C)C(=O)c2ccncc2)OCCCC[C@H](C)Oc2ccc(NS(=O)(=O)c3ccc(Cl)cc3)cc2C1=O | 2.5 | 1.7 | 3.1 | i

Screening results from PubChem BioAssay.

An excerpt. The share of hits here may be higher or lower than overall.
